# Screening results as filed in PubChem BioAssay.
# ClpP mod: qHTS Assay for Activators of ClpP; ATP-dependent Clp protease proteolytic subunit (Bacillus subtilis (strain 168)), P80244; purified B. subtilis ClpP, FRET peptide cleavage, 20 min; Potency, µM (series often up to 57.5 µM), without a hit: at the top dose activity change, negative = active; actives 1.9% (n = 340,000); AID 651965, 2013; active = well fitted falling curve with a large enough effect; inconclusive = small, poorly fitted or top-dose-only effect; inactive = no such curve, though single readings can be large or run the other way; also: the source files actives as falling curves though it sought activators and does not explain the sign; nearly all actives have a fitted effect of over 65% in size; many hits overshoot -100%
# Target sequence (P80244 whole entry, looked up): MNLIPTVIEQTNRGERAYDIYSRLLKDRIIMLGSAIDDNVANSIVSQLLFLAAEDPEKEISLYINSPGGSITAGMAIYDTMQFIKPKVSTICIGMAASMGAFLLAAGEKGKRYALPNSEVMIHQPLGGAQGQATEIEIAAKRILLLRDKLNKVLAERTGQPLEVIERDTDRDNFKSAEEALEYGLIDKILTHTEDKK
#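 Buffer: 100 mM Tris/HCl pH8, 100 mM KCl, 0.05% low protease BSA, 2.5% glycerol, 0.01% Tween-20. ClpP 10 microg/mL final; 20 min RT; delta FRET normalized to ADEP and DMSO controls.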
# The depositor's hits bear a star; ? = inconclusive. Potency is read from the fitted curve at half-maximal effect. Some of the compounds tested; count on the stated rates, not on these rows.
SMILES,ClpP mod
COc1cccc(N2CCN(S(=O)(=O)c3cc(Br)cc4c3N(C(=O)C3CC3)CC4)CC2)c1,-0.6%
COC(=O)C1=C(c2ccccc2)c2ccccc2S(=O)(=O)N1CC(=O)Nc1cccc(C(C)=O)c1,-5.2%
c1ccc(OCCn2c(COc3ccccc3)nc3ccccc32)cc1,-6.4%
CCc1cc(C(=O)Nc2c(C)nn(Cc3ccc(C)cc3)c2C)no1,-0.1%
COc1ccc(C(=O)Nc2nnc(SCc3cc(=O)n4cccc(C)c4n3)s2)cc1,5.0%
COc1ccc(Nc2cc(C)c3cc(NC(=O)c4cc(OC)cc(OC)c4)ccc3n2)cc1,?
Cc1ccc2[nH]c3c(=O)n(CC(=O)N4CCN(c5cccc(C(F)(F)F)c5)CC4)ncc3c2c1,-1.9%
CN1C(=O)Cc2cc(S(=O)(=O)CCC(=O)Nc3ccc(Cl)c(C(F)(F)F)c3)ccc21,-2.3%
COc1ccc(-c2cc(C(F)(F)F)nc(SCCC(=O)Nc3cccc(OC)c3)n2)cc1,-4.7%
Cc1ccc(CCNC(=O)c2ccc3c(c2)nc2n3CCOC2)cc1,0.3%
CC(C)CCNC(=O)C1CCN(S(=O)(=O)c2cccc3nsnc23)CC1,2.2%
CCOc1cc(-c2nc(-c3ccc(Br)cc3)no2)cc(OCC)c1OCC,-1.1%
Cc1ccccc1-c1nc(SCC(=O)NCc2ccc(F)cc2)c2c(=O)n(C)c(=O)n(C)c2n1,-0.5%
Cc1[nH]c2c(C)cccc2c1CCNC(=O)c1cc2ccccc2oc1=O,-0.4%
CCCCn1c(SCC(=O)Nc2cccc(OC)c2)nc2ccsc2c1=O,0.2%
O=C(Nc1ccc(Br)cc1F)N1CC=C(c2c[nH]c3ccccc23)CC1,-9.4%
CS(=O)(=O)c1ccc(C(=O)OCC(=O)N2CCCC2)cc1[N+](=O)[O-],1.0%
CC1=C(c2ccc(C)c(C)c2)S(=O)(=O)N=C1N1CCC(C(=O)N2CCC(C)CC2)CC1,1.3%
Brc1cccc(-c2nnn3c2nc(N2CCCCC2)c2ccccc23)c1,-14.2%
COc1ccc(NC(=O)CSC2=Nc3ccccc3C3=NC(CCC(=O)NC4CCCCC4)C(=O)N23)cc1Cl (centres undefined),-0.6%
Cc1ccc(N2CC(NC(=O)Cc3ccc(F)cc3)CC2=O)cc1C (centres undefined),-2.7%
CCC1CN(S(=O)(=O)c2cc(-c3cc(C)no3)ccc2OC)c2cc(Cl)ccc2O1 (centres undefined),-2.1%
COc1ccccc1CNC(=O)c1c(O)nc2c(C)cccn2c1=O,-3.2%
CCOc1ccc(/C=C/C(=O)Nc2sc3c(c2C(=O)OC)CCC3)cc1,-2.8%
CCCCCCCCN1C(=O)[C@H](CC(=O)NCCCC)C[C@@]2(C(=O)OC)CCCCC=C12,-5.1%

# The results go on.
SMILES,ClpP mod
CCOC(=O)c1ccc(NC(=O)c2ccc(=O)n(Cc3cccc(C)c3)c2)cc1,-4.1%
Cc1c(Cl)ccc2sc(N3CCN(C(=O)CS(=O)(=O)c4ccccc4)CC3)nc12,-1.0%
CCOC(=O)c1ccc(NC(=O)CSc2nc3ccccc3c(=O)n2CCC(=O)NC2CCCCC2)cc1,1.9%
COC(=O)c1ccc2c(=O)n(CCCCCC(=O)N3CCN(c4ccc(OC)cc4)CC3)c(=O)[nH]c2c1,-4.4%
CCOc1ccccc1NC(=O)COc1ccc(S(=O)(=O)NC2CCCCC2)cc1,-4.4%
O=C(CCn1cccn1)Nc1ccc(Br)cc1F,-1.4%
CCOC(=O)c1cnc2c(ccc3ccccc32)c1Nc1ccc(N(C)C)cc1,-6.4%
CCOc1ccccc1NC(=O)C1CCCN(S(=O)(=O)c2cccs2)C1 (centres undefined),0.7%
CCn1c2ccccc2c2cc(CN3CCN(Cc4cc(OC)c(O)c(OC)c4)CC3)ccc21,-6.7%
CCOC(=O)c1ccc(CN(Cc2ccc(Cl)cc2Cl)S(=O)(=O)c2cccc(Cl)c2)cc1,-1.3%
COCCNC(=O)c1cc2c(Br)ccc(Br)c2nc1N,-6.9%
COc1nc(-c2ccc(C)cc2)ccc1-c1noc(-c2ccc(C(C)(C)C)cc2)n1,-11.9%
COCCCNC(=O)CN1C(=O)c2c(c3ccccc3n2C)C1c1ccc(OC)cc1 (centres undefined),31.6µM*
CC(=O)Nc1nonc1-c1nnc(SCc2ccccc2F)n1C,0.4%
Cc1ccc(-n2nc3c(=O)n(C(C)C(=O)O)nc(C)c3c2C)cc1 (centres undefined),-7.4%
CCOC(=O)c1sc(NC(=O)c2cc(CC)on2)c(C(=O)OCC)c1C,-10.2%
Cc1[nH]c2ccc(Br)cc2c1CCNC(=O)c1cc2ccccc2oc1=O,3.6%
COc1ccc(Nc2ncnc3c2cnn3-c2cc(Cl)ccc2C)cc1OC,-1.6%
CN(C(=O)CSc1nc2ccccc2n1Cc1cccc(C(F)(F)F)c1)c1ccccc1,-1.1%
CCc1cccc(NC(=O)Cn2c(=O)n(CCC(=O)NCc3ccccc3Cl)c(=O)c3sccc32)c1,-0.8%
COc1ccc(OC)c(CCNC(=O)CCCn2c(=O)c3cccn3c3ccccc32)c1,0.0%
CC(C)c1ccc(NC(=O)c2cc3c(=O)oc4ccccc4c3s2)cc1,-12.3%
COc1cc(OC)c(NS(=O)(=O)c2c(C(=O)N3CCCCCC3)c(C)n(C)c2C)cc1Cl,0.0%
Cc1cccc(-n2ncc3c(Nc4ccc(C)c(Cl)c4)ncnc32)c1,4.8%
O=C1c2ccccc2C(=O)c2cc(Cn3cc(-c4cccc(C(F)(F)F)c4)nn3)ccc21,2.7%

# Some of the entries above, set out differently:
SMILES	ClpP mod
COCCCNC(=O)CN1C(=O)c2c(c3ccccc3n2C)C1c1ccc(OC)cc1 (centres undefined)	31.6µM*
CC(=O)Nc1nonc1-c1nnc(SCc2ccccc2F)n1C	0.4%
Cc1ccc(-n2nc3c(=O)n(C(C)C(=O)O)nc(C)c3c2C)cc1 (centres undefined)	-7.4%
CCOC(=O)c1sc(NC(=O)c2cc(CC)on2)c(C(=O)OCC)c1C	-10.2%

# The listing continues.
SMILES,ClpP mod
COc1ccccc1NC(=O)Cn1c(=O)n(Cc2ccccc2)c(=O)c2ccccc21,-10.8%
Cc1cccc(-c2nc3scc(CCNS(=O)(=O)c4ccc(Oc5ccccc5)cc4)n3n2)c1,0.5%
Cc1cccc(-c2nc(CSCC(=O)NCCc3ccc(Cl)cc3)c(C)o2)c1,-18.3%
Cc1ccc(-n2nc(C)c3c(C(F)(F)F)cc(-c4cccnc4)nc32)cc1C,-3.7%
CCc1ccc(NC(=O)C2CCCN(S(=O)(=O)c3ccc(F)cc3)C2)cc1 (centres undefined),0.7%
COc1ccc(OC)c(NC(=O)Cn2c(=O)n(Cc3ccccc3)c(=O)c3ccccc32)c1,-10.1%
CCOc1ccc(C(=O)N(Cc2ccc(C(C)C)cc2)Cc2ccco2)cc1,0.4%
COc1cc(NC(=O)C(CC(C)C)NS(=O)(=O)c2ccc3c(c2)CCCC(=O)N3)cc(OC)c1 (centres undefined),-1.3%
Cc1ccc(-c2nc3ncccn3c2N)cc1,-3.8%
COc1ccccc1NC(=O)C(C)Sc1nnc2ccc3ccccc3n12 (centres undefined),0.2%
COc1ccccc1CNc1ncnc2onc(-c3ccc(F)cc3)c12,5.1%
Cc1cc2c(cc1C)-n1nnnc1C(N1CCN(CC(=O)NC(C)C)CC1)C(=O)N2 (centres undefined),-0.4%
Cc1ccc(NC(=O)Cn2nc(C)c3nn(-c4ccc(Cl)cc4)c(C)c3c2=O)cc1F,-8.3%
O=S(=O)(c1ccc(Cl)cc1Cl)n1ccnc1,0.6%
CCOc1ccc(/C=C(\C#N)C(=O)Nc2sc3c(c2C(=O)OC)CCC3)cc1OC,0.2%
CCN(CCCNC(=O)c1cc2c(Cl)nc3ccccc3c2s1)Cc1ccccc1,-5.1%
CCOc1ccccc1NC(=O)c1ccc2c(Cl)c3c(nc2c1)CCCC3,-7.3%
CC(C)(C)C1CCc2nc(NC(=O)c3cccc(Cl)c3)sc2C1 (centres undefined),?
Cc1ccc(C(=O)COC(=O)C(Cc2c[nH]c3ccccc23)NC(=O)c2ccc(C(C)(C)C)cc2)cc1 (centres undefined),-4.3%
CC1=C(c2ccc(C(C)C)cc2)S(=O)(=O)N=C1N1CCC(C(=O)NCc2ccccc2)CC1,2.3%
Cc1ccc(CSc2nc(=O)c3c(n2C)NC(=O)CC3c2ccc(OC(C)C)cc2)cc1 (centres undefined),-1.8%
Cc1ccccc1C(=O)N(Cc1ccc(N(C)C)cc1)CC1CCCO1 (centres undefined),-0.7%
COc1ccc(OC)c(-c2nc(C(N)=O)c3c(n2)n(-c2ccc4c(c2)OCO4)c(=O)n3C)c1,-0.3%
O=C(Nc1ccc2oc(-c3cccc(Cl)c3Cl)nc2c1)c1cccc(Br)c1,5.0%
COc1cc(OC)c(NC(c2nnc(-c3ccccc3)o2)c2ccc(F)cc2Cl)cc1Cl (centres undefined),-7.2%

# Entries shown so far that have a tert-butyl group, in the order listed:
SMILES,ClpP mod
COc1nc(-c2ccc(C)cc2)ccc1-c1noc(-c2ccc(C(C)(C)C)cc2)n1,-11.9%
CC(C)(C)C1CCc2nc(NC(=O)c3cccc(Cl)c3)sc2C1 (centres undefined),?
Cc1ccc(C(=O)COC(=O)C(Cc2c[nH]c3ccccc23)NC(=O)c2ccc(C(C)(C)C)cc2)cc1 (centres undefined),-4.3%

# The list continues:
SMILES,ClpP mod
Cn1c(C(=O)Nc2cccc(C(F)(F)F)c2)cc2c(=O)n3ccccc3nc21,4.2%
CCOC(=O)N1CCc2c(sc3c2c(=O)n(-c2ccc(CC)cc2)c(=O)n3Cc2cccc(Cl)c2)C1,-1.4%
CC(C)(C)OC(=O)N1CCC(c2c(C(=O)N3CCCCC3)cnn2-c2ccc(Cl)cc2)CC1,-1.7%
Cc1ccc(NC(=O)Cn2c(=O)n(-c3ccccc3)c(=O)c3ccc(C(=O)NCc4ccc5c(c4)OCO5)cc32)cc1,15.4%
C1=Nc2ccccc2/C1=C/c1ccccc1,?
Cc1c(O)c2c(c(C(=O)/C=C/c3ccccc3)c1O)OC(C)(C)C=C2,-1.5%
Cc1ccnc(NS(=O)(=O)c2ccc(NC(=O)c3cc(=O)c4ccc(C)c(C)c4o3)cc2)n1,-2.5%
CC1CN(C(=O)N2CCC(C(=O)NCc3ccco3)CC2)c2ccccc2O1 (centres undefined),-1.4%
O=C(COc1ccccc1)NCC(c1cccs1)S(=O)(=O)c1ccc(Cl)cc1 (centres undefined),0.1%
COc1ccc(CCNc2nc3c(c(=O)n(C)c(=O)n3C)n2Cc2ccc(F)cc2)cc1OC,-0.5%
O=c1c2oc3ccccc3c2n(Cc2ccccc2F)c(=O)n1Cc1ccco1,-1.6%
CCc1ccc(S(=O)(=O)c2nnn3c2nc(N2CCN(CC)CC2)c2sccc23)cc1,-5.2%
COc1ccc(C(=O)Nc2nc3n(n2)C(c2ccc(F)cc2)C=C(c2ccc(Cl)cc2)N3)cc1 (centres undefined),?
CCCCn1nnnc1C(c1ccccc1)N1CCN(c2cccc(C(F)(F)F)n2)CC1 (centres undefined),?
O=C1C=C(OCCF)CC(c2ccc(Br)cc2)O1 (centres undefined),1.4%
CCOCCCn1c(SCC(=O)Nc2cc(C)ccc2C)nc2c(oc3ccccc32)c1=O,0.0%
Cc1ccc(-c2cc(C(=O)Nc3ccc(SC(F)F)cc3)no2)cc1F,-3.4%
CC(C)(C)CC(C)(C)c1ccc(OCC(=O)Nc2ccc(S(=O)(=O)Nc3ncccn3)cc2)cc1,1.2%
Cc1cccc(C(=O)Nc2ccc(OCc3cc(=O)n4c5c(sc4n3)CCCC5)cc2)c1,-4.6%
COc1ccc(OCc2nc(-c3ccc(-n4cccc4)cc3)no2)cc1,-24.2%
O=C(CCC1N=C2c3ccccc3N=C(SCc3ccc(Cl)cc3)N2C1=O)NCc1cccs1 (centres undefined),-2.0%
NC(=O)CSc1nc2c(oc3ccccc32)c(=O)n1-c1ccccc1F,-10.5%
COc1ccc(-c2nc(SCc3cc(=O)c4cc(C)ccc4[nH]3)n[nH]2)cc1,-1.5%
Cc1ccc(CCNC(=O)c2cc(-c3ccc(Cl)cc3)n[nH]2)cc1,-0.2%
COc1ccc(CCNC(=O)CCCn2c(=O)c3cccn3c3cccnc32)cc1OC,?

# Seven records drawn at random from the list so far, as already listed:
SMILES,ClpP mod
COc1ccc(OCc2nc(-c3ccc(-n4cccc4)cc3)no2)cc1,-24.2%
COc1ccc(-c2nc(SCc3cc(=O)c4cc(C)ccc4[nH]3)n[nH]2)cc1,-1.5%
CCOC(=O)N1CCc2c(sc3c2c(=O)n(-c2ccc(CC)cc2)c(=O)n3Cc2cccc(Cl)c2)C1,-1.4%
Cc1cccc(C(=O)Nc2ccc(OCc3cc(=O)n4c5c(sc4n3)CCCC5)cc2)c1,-4.6%
CC(C)(C)OC(=O)N1CCC(c2c(C(=O)N3CCCCC3)cnn2-c2ccc(Cl)cc2)CC1,-1.7%
O=c1c2oc3ccccc3c2n(Cc2ccccc2F)c(=O)n1Cc1ccco1,-1.6%
Cc1ccc(CCNC(=O)c2cc(-c3ccc(Cl)cc3)n[nH]2)cc1,-0.2%

# Carrying on.
SMILES,ClpP mod
CCc1ccc(NC(=O)CSc2nnc(-c3ccc(N)cc3)n2C)cc1,-2.2%
COc1ccc(NC(=O)c2cn(CC(C)C)c(=O)c3cc(OC)c(OC)cc23)cc1Cl,-4.6%
Cc1ccc(NC(=O)Cn2c(=O)n(Cc3nc(-c4ccccc4)no3)c(=O)c3ccccc32)cc1C,2.7%
COc1ccccc1Nc1nn2c(=O)c3ccc(C(=O)NC(C)c4ccccc4)cc3nc2s1 (centres undefined),2.4%
CC(=O)N1c2ccccc2CC1C(=O)N1CCN(c2cccc(Cl)c2)CC1 (centres undefined),0.8%
Cc1ccc2nc(Nc3cccc(C(F)(F)F)c3)c3nnnn3c2c1,33.5%
Cc1cc(Cl)ccc1NS(=O)(=O)c1ccc2c(c1)CC(C)N2C(=O)C1CCC1 (centres undefined),-1.5%
